# From PubChem
# NPYLR7 ag: mosquito NPYLR7 agonism. HEK293T NPYLR7/Galpha15, GCaMP6s calcium fluorescence. activation, % at 10 µM. hit rate 0.15% among 270,000; in the data active means activation above about 40%;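 further: 0% = vehicle and 100% = reference agonist at the receptor; some compounds past the cut are filed as inactive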
# NPYLR7 ag max-min: recorded beside NPYLR7 ag, whose call it bears; activation, %; measured here: Max-Min RFU normalised activation; some inactives read as strong as hits;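 span of the calcium signal over five minutes; 0% = vehicle and 100% = native peptide agonist; compound fluorescence can raise it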
# * hit, by the source's call; & = joins results of further samples.
Compound | NPYLR7 ag | NPYLR7 ag max-min
CCN(CC(=O)NCc1ccc(NC(C)=O)cc1)C1CCOC(C)(C)C1 (stereo not drawn) | 18&2 | 9&1
O=S(=O)(c1ccccc1)c1ccc2c(c1)Sc1ccccc1N2 | 1 | 7
Cc1c(Cl)c([N+](=O)[O-])nn1CC(=O)Nc1cc(Cl)ccc1O | -5 | -13
CCCCc1nc2cc(C(=O)N3CCCC3c3nc4ccc(F)cc4[nH]3)ccc2o1 (stereo not drawn) | -8 | -11
CC(C)(C)NC(=O)CN1CCN(C(=O)c2csc(-c3ccc(Cl)cc3)n2)CC1 | 8 | 7
Cc1cc(C(=O)N2CCCC2)nn1-c1ccc(Br)cc1 | 2 | -1
Cn1c(=O)c2[nH]c(CN3CCN(Cc4ccccc4)CC3)nc2n(C)c1=O | 0 | 23
O=C(NC1CCS(=O)(=O)CC1)c1cc(-c2cccc(Cl)c2)no1 | 0 | -4
Fc1ccc(N=c2scc(CCl)n2CC2CCCO2)cc1 (stereo not drawn) | 4 | 3
Cc1cc(C)c(C(=O)N2CCN(Cc3cc(=O)c(OCc4ccc(C(C)(C)C)cc4)co3)CC2)c(C)c1 | 28 | 14
COCCNC(=O)Cn1nc2c(c1NC(=O)c1cccc3ccccc13)CSC2 | -5 | 0
CC1CC1C(=O)Nc1ccc(F)cc1C(=O)N=c1sccn1C (stereo not drawn) | -2 | -4
CN(CC12CC3CC(CC(C3)C1)C2)S(=O)(=O)C1CCS(=O)(=O)CC1 | 7 | 4
Cc1ccc(O)c(N=NC2=C(O)CC(C)(C)CC2=O)c1 | -6 | -6
COc1ccc(C(=O)NCC(=O)N=Nc2c(O)n(Cc3ccccc3)c3ccccc23)cc1OC | -1 | -8
Fc1ccc(CC2CN(Cc3ccc4c(c3)CCO4)CCO2)cc1 (stereo not drawn) | 5 | -4
COc1cc(/C=C2\C(=O)NC(=S)N(C)C2=O)ccc1O | 0 | -3
N#Cc1ccc(N2CCC(C(=O)N3CCCCC3)CC2)nc1 | 6 | 1
C=CCN(C(=O)CCn1c(C)cc(C)nc1=O)C1CCCC1 | -6 | -11
O=C(CN1CCCC1=O)N1CCC(CCn2cccn2)CC1 | 12 | 1
CCc1cc(=O)n(CC(=O)Nc2ccc(C(N)=O)cc2)c(-n2nc(C)cc2C)n1 | 1 | 1
CCc1ccccc1NS(=O)(=O)c1ccc(C)s1 | 3 | 2
CCOc1cc(C(=O)CCC(=O)NCc2ccco2)ccc1O | -4 | -7
Cc1ccn(-c2ccc(Nc3ccc(NC(=O)Cc4ccccc4)cc3)nn2)n1 | -4 | -10
CCCCn1cc(S(=O)(=O)c2ccccc2)c(=O)c2cc(F)c(F)cc21 | -10 | -14
Cn1c(-c2ccccc2F)nn(CN2CCc3ccccc3C2)c1=S | 12 | 5
O=C(CCN1C(=O)c2ccccc2C1=O)Nc1cccc(Cl)c1 | -4 | -10
CCCCn1c(N)c(N(CCC(C)C)C(=O)NC2CCCCC2)c(=O)[nH]c1=O | 7 | 9
CCOC(=O)c1cc(-c2ccc(N3CCN(C(=O)c4ccc(NC(C)=O)cc4)CC3)cc2)n(-c2ccc(F)cc2)n1 | 24 | 16
O=S(=O)(NNc1c(F)c(F)c(F)c(F)c1F)c1ccc(F)cc1 | -1 | -1
CCOC(=O)CNC(c1ccccc1)c1cc(Br)ccc1N (stereo not drawn) | 1 | -1
CCN(CC)CCCC(C)NC(=O)c1cc(-c2cccs2)nn1-c1ccc(C)cc1 (stereo not drawn) | 8 | 15
CC1(C(=O)Nc2cccc3c2CCCC3)CCN1S(=O)(=O)c1ccccc1 (stereo not drawn) | 5 | 1
CC(C)c1ccc(C(=O)N2CCC3(CC2)C(=O)NCCN3C)c(=O)n1C | -4 | -5
ON=Cc1ccc(OCc2ccccc2)c(OCc2ccccc2)c1 | -5 | -8
Cc1ccsc1C(=O)N1CCN(S(=O)(=O)c2ccc(Cl)cc2)CC1 | -4 | -2
COc1cccc(-c2csc(-n3nc(C)cc3NC(=O)Cc3ccc(F)cc3)n2)c1 | -2 | -3
COc1ccc(C(=O)C=c2[nH]c(=O)c(=Cc3ccc4c(c3)OCO4)s2)cc1 | 2 | -1
COc1ccc(Cl)cc1CN1C(=O)CON=C1Cc1ccccc1 | 6 | 2
CCOc1ccc(-n2c(-c3ccccc3)n[nH]c2=S)cc1 | -6 | -12
FC(F)(F)c1nc(Nc2ccc(-n3cnnn3)cc2)c2ccccc2n1 | 2 | 3
Cc1nc2c(C)cccc2cc1C(=O)N1CCCC(N(C)CCCN(C)C)C1 (stereo not drawn) | 0 | -5
Cc1nc(C(C)NC(=O)NC2CCCN(c3ccccc3)C2)cs1 (stereo not drawn) | 0 | -1
CN(Cc1cccc(C#N)c1)C(=O)NCC1(c2ccccc2)CCC1 | 10 | 8
CCc1ncc2c(n1)CN(CC(O)COCC1CCCO1)CC2 (stereo not drawn) | 2 | 1
COc1cc2nc(CN3CCOCC3)n(C(C)C(=O)Nc3cc(C)on3)c(=O)c2cc1OC (stereo not drawn) | 12 | 22
CCN(Cc1nccn1C)C(=O)c1ccc(-c2csc3ccccc23)nc1 | -3 | -2
CC(=O)CCc1oc2c([N+](=O)[O-])cccc2c1-c1ccc(C)o1 | -1 | -1
COc1ccccc1CNC(=O)c1ccc2nc(C)c(N(C)CC3CCCCC3)n2c1 | -3 | -9
COc1ccc(C(=O)C=Cc2ccc(Br)cc2F)c(OC)c1 | -1 | -7
CCCC(=O)C1=C(N2CCN(C3=C(C(=O)CCC)C(=O)CC(C)(C)C3)CC2)CC(C)(C)CC1=O | -1 | -5
Cc1cc(C(=O)N2C[C@@H]3[C@H](C2)[C@H]2CC[C@@H]3O2)sc1-c1ccccc1 | 6 | 1
Cc1cc(Oc2cc(N3CCC(C)CC3)ncn2)ccc1Cl | -2 | 4
CCC1CN(C(=O)CN2C(=O)NC(C)(c3ccccc3F)C2=O)CCO1 (stereo not drawn) | -3 | -3
CCOC(=O)C1(Cc2ccccc2)CCCN(C2CCN(C(C)=O)CC2)C1 (stereo not drawn) | -10 | -15
CCN(CC)c1ccc(N2C(=O)/C(=C/c3ccc(Cl)cc3)C=C2c2ccccc2)cc1 | -3 | -7
CCc1cc(=O)[nH]c(-n2nc(C)cc2NC(=O)C2CC(=O)N(c3ccc(F)cc3)C2)n1 (stereo not drawn) | 7 | 0
CCN(CC)C(=O)Oc1ccc2c(ccn2Cc2cc(Br)cc(Br)c2)c1-c1ccc(F)c(Cl)c1 | 20 | 19
O=C(CCc1ccccc1)NCCNc1ccc(Nc2ccccn2)nn1 | 10 | 5
CN(C)S(=O)(=O)c1ccc(Cl)c([N+](=O)[O-])c1 | -4 | -9

# Structures from the list above that contain a furan ring, fused or not, in the order listed:
Compound | NPYLR7 ag | NPYLR7 ag max-min
CCOc1cc(C(=O)CCC(=O)NCc2ccco2)ccc1O | -4 | -7
CC(=O)CCc1oc2c([N+](=O)[O-])cccc2c1-c1ccc(C)o1 | -1 | -1

# Other results follow:
Compound | NPYLR7 ag | NPYLR7 ag max-min
Cc1cn2c3c(=O)n(Cc4cccc(Cl)c4)c(=O)n(C)c3nc2n1CC1CCCO1 (stereo not drawn) | -2 | 20
O=C(NC1CC1)c1ccc(Cn2cc(Br)cn2)o1 | 8 | 9
CC(C)(C)OC(=O)N1CCC(Nc2ncc(Br)cn2)C1 (stereo not drawn) | 6 | 7
COCCN(Cc1cc(NC(=O)C(C)C)ccc1N(C)C)C(=O)c1ccco1 | 22 | 19
COc1ccc(/C=C2\SC(=S)N(CCC(=O)OC3CCCCC3)C2=O)cc1 | 6 | 9
Fc1ccccc1-c1noc2nc(Oc3cccnc3)ccc12 | 2 | 2
CC(=O)Nc1cccc2c1NCCC2 | 1 | -3
CC1CN2C(=O)CN(C(=O)Nc3c(F)cc(Br)cc3Br)CC2c2ccccc21 (stereo not drawn) | 18 | 32
CC(=O)NNC(=O)COc1cc(C)c(Cl)c(C)c1 | 0 | -8
CC(C)(C)c1cn2nc(Nc3ccc(N4CCC(O)CC4)cc3)sc2n1 | 2 | 0
COc1ccc(C2CC(C(F)(F)F)n3ncc(C(=O)NC4CCCC4)c3N2)cc1OC (stereo not drawn) | -1 | -7
CCc1cc(Oc2ccccc2F)nc(SCc2cc(F)ccc2F)n1 | 3 | 8
CN1CCCC(c2n[nH]c(=O)n2CCc2ccccc2)C1 (stereo not drawn) | 3 | 1
CC(=O)N1CCC(NC(C)c2ccccc2Br)CC1 (stereo not drawn) | 7 | 8
CCC(=O)Nc1c(-c2ccc(OC)c(OC)c2)c(=O)c2ccccc2n1C | 7 | 2
O=C(CCN(Cc1ccccc1)c1nc(Cc2ccccc2)ns1)N1CCN(Cc2ccccc2)CC1 | -10 | -14
O=C1CC(C(=O)N(CC2CCCO2)c2nc3c(F)cccc3s2)CN1c1ccccc1 (stereo not drawn) | -1 | -1
O=C1/C(=C/C2CC=CCC2)SC(=S)N1C1CCS(=O)(=O)C1 (stereo not drawn) | 4 | 2
COc1ccc(OC)c(NC(=O)NCCNc2nc(C)cc(N3CCCCC3)n2)c1 | -4 | -5
CC(C)C(=O)Nc1cccnc1-c1ccn[nH]1 | 9 | -1
Cc1ccc(-c2nn(C(C)(C)C)c3ncnc(N)c23)cc1 | -11 | -13
Brc1ccc(-c2ccc(C=NNC3=NCCCCC3)o2)cc1 | 11 | 9
CC12CC(C)(C)C(C#N)(C(=N)C1C#N)C(C(C#N)C#N)=N2 (stereo not drawn) | 4 | 4
Cc1cnc(N)c(-c2cccc(C(=O)O)c2)c1 | 0 | -2
COc1cccc(C(=O)N2CCCC(OCc3ccc(Br)cc3)C2)c1 (stereo not drawn) | -6 | -5
O=S(=O)(c1ccc2c(c1)OCCO2)N1CCCC1c1nc2ccccc2s1 (stereo not drawn) | 5 | 5
CC(C)(C)c1cc(NC(=O)Cn2cc(C(F)(F)F)cc(Cl)c2=O)on1 | 11 | 14
Cc1ccccc1NC(=O)Nc1ccc(N2CCCC2)c(C(=O)NCc2ccc(F)cc2)c1 | -6 | 1
Cc1ccc(Cl)c(OC2CC3CCC(C2)N3C(=O)c2ccc(CSc3ccoc3C)cc2)c1 (stereo not drawn) | 0 | 0
O=C(c1ccc(F)cc1)N1CCCC(OCc2cc(F)ccc2F)C1 (stereo not drawn) | -3 | -1
Cc1c(C(=O)NC(C)C)sc2ncc(C(=O)NC(C)C)cc12 | -3 | -4
Cc1cc(C)cc(NC(=O)c2oc(C)nc2C)c1 | -6 | -6
CS(=O)(=O)c1ccc(CN2CC[C@@]3(C2)[C@@H](O)CN(c2ccccc2)S3(=O)=O)cc1 | -3 | -1
COc1ccc(OC)c(NC(=O)Cn2cc(OC)c(=O)cc2CSc2nc(C)cs2)c1 | -5 | -8
c1csc(-c2nnc(-c3ccc4c(c3)OCO4)o2)c1 | 14 | 6
Cc1c(C)n2c3c(=O)n(C)c(=O)n(C)c3nc2n1Cc1ccc(F)cc1 | 13 | 6
OCn1nc(-c2ccccc2Br)oc1=S | -3 | -5
CC(C)(C)CC(C)(C)c1ccc(OCC(=O)NNC(=O)c2ccc(F)cc2)cc1 | -2 | -6
Cc1ccc2cc(S(=O)(=O)NCCn3nc(C)c(Cl)c3C)ccc2c1 | 3 | 0
Cc1nn(C)c(C)c1CC(=O)N1CCN(S(=O)(=O)c2ccc(Cl)c(Cl)c2)CC1 | -5 | -5
O=S(=O)(c1ccc2c(c1)CCC2)N1CCN(Cc2nnc(-c3ccco3)o2)CC1 | 4 | 2
COc1cccc(-c2cccc(-c3ccc(NC(=O)c4ccc(F)c(Cl)c4)cc3)n2)c1 | 26 | 32
Cc1noc(C(C)C)c1C(=O)O | -7 | -11
S=c1[nH]nc(C#Cc2ccccc2)n1Cc1ccccc1 | -6 | -9
CC1CC(C)CN(C(=O)c2cnn(C)c2)C1 (stereo not drawn) | 2 | 3
O=C(C=Cc1cccs1)NC1CCCC1 | 5 | 3
COCCN(CC(=O)N(CCc1c[nH]c2ccccc12)Cc1ccc(C)cc1)C(=O)Nc1ccc(C)cc1C | 22 | 17
COc1ccccc1C1CCN(C(=O)CCC(=O)NC2CCCC2)CC1 | -1 | -7
O=C(CN(C(=O)c1ccc(Br)cc1)C1CCCCC1)N(Cc1ccc(F)cc1)Cc1cccs1 | -3 | 8
O=C(Cn1c(=O)oc2ccccc21)N1CCN(CCc2ccncc2)CC1 | 4 | -7
CC(=O)Nc1nn2c(-c3ccco3)nnc2s1 | 5 | 2
COCCNC(=O)C1(C)CCCN(Cc2ccsc2)C1 (stereo not drawn) | -1 | -2
CCOC(=O)C1(Cc2cccc(OC)c2)CCCN(C2CSCCSC2)C1 (stereo not drawn) | 4&-5 | -3&-10
COc1ccc(C(C)C)cc1-c1cnc(N[C@H](CO)C(C)C)cn1 | 0 | 0
COc1ccc(CNC(=O)NNc2ccccc2Cl)cc1 | 14 | 13
O=C(CSc1ccc(C(=O)N2CCC(n3c(=O)[nH]c4ccccc43)CC2)cn1)c1ccc(Cl)cc1 | 35 | 17
COc1cc(NC(=O)CCc2nc3sc4c(c3c(=O)[nH]2)CCCC4)cc(OC)c1 | 0 | 21
CCOC(=O)N(C)c1c(CC)nc2ccc(C(=O)NCCNC(C)=O)cn12 | 18 | 14
O=C(Nc1nnc(Cc2ccccc2)s1)C1CC2CCC1C2 (stereo not drawn) | 15 | 4
O=C(c1ccco1)N1CCC(c2nc(-c3ccc(Cl)cc3F)no2)CC1 | -5 | -10
C=C1C=C(NS(=O)(=O)c2cccc([N+](=O)[O-])c2)C=CC1=O | 5 | 0
NC(=O)CSc1nc2ccccc2c(=O)n1-c1ccccc1F | -6 | -9

# In the list so far, these contain a cyano group.
Compound | NPYLR7 ag | NPYLR7 ag max-min
N#Cc1ccc(N2CCC(C(=O)N3CCCCC3)CC2)nc1 | 6 | 1
CN(Cc1cccc(C#N)c1)C(=O)NCC1(c2ccccc2)CCC1 | 10 | 8
CC12CC(C)(C)C(C#N)(C(=N)C1C#N)C(C(C#N)C#N)=N2 (stereo not drawn) | 4 | 4

# These rows are one share of the data, so the mix of outcomes need not match the whole.
